Bioassay records (PubChem)
Cruzain Triton: cruzain (T. cruzi) inhibition with detergent; 0.43% of 200,000 active; Potency, µM, without a hit: max response, negative = inhibition, usual class: inhibitors; AID 1478; purified cruzain, Z-FR-AMC fluorescence, 0.01% Triton; P25779;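 also: plate controls were neutral wells for no effect and buffer without enzyme for full effect; nearly all actives have a fitted effect of over 40% in size; top concentration of the series not given in the record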
Target sequence (P25779 123-467 limits assumed): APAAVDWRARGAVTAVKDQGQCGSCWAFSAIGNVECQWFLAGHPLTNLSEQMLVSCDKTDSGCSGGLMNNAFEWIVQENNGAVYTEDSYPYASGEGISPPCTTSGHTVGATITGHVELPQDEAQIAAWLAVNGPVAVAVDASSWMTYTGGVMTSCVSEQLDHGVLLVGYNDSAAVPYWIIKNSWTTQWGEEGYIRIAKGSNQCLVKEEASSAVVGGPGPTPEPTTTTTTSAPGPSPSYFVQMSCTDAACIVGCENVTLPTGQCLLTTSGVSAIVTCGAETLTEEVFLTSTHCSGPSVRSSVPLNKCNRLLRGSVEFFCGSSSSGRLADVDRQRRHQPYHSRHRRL
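Read-out: AMC fluorescence (360 nm excitation, 450 nm emission), four reads over 2 min, first-to-third difference used. Conditions: cruzain 1.5 nM, Z-FR-AMC 2 uM, pH 5.5 acetate, 5 mM DTT, 0.01% Triton X-100.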
RE007 growth inh: less growth of the S. pombe RE007 Vpr strain. S. pombe RE007 Vpr strain, BacTiter-Glo ATP luminescence, 24 h; control for the full effect not named in the record. Potency, µM (series often up to 92.2 µM), for the others: at the highest dose activity change, negative = less growth. 0.21% of 360,000 active. AID 651644; active = well fitted falling curve with a large enough effect; inconclusive = small, poorly fitted or top-dose-only effect; inactive = no such curve, though single readings can be large or run the other way;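 also: % is scaled to controls: 0 for no effect and ±100 for the full control effect; nearly all actives have a fitted effect of over 50% in size; the assay follows cell death caused by Vpr and the record does not say whether a fall means rescue or toxicity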
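Fission yeast RE007 carrying one integrated HIV-1 vpr copy, seeded at OD 0.01 in PMG+AL medium with 23 nL pinned compound. Grown 24 h at 30 degrees; viability read by BacTiter-Glo luminescence after 5 min.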
NS1 function inh: inhibitors of influenza NS1 protein function. S. cerevisiae slowed by influenza A NS1, growth recovery by OD600. Potency, µM (doses to about 46.1 µM), for inactives: top-dose activity, positive = more growth. 0.4% of 270,000 active. AID 2326; active means well fitted rising curve with a large enough effect; inconclusive means small, poorly fitted or top-dose-only effect; inactive means no such curve, though single readings can be large or run the other way; also: nearly all actives have a fitted effect of over 50% in size
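S. cerevisiae expressing influenza A NS1, grown in glucose, washed, then diluted 1:100 into pH 6.0 -URA galactose medium with 23 nl compound. Growth recovery read as OD600; NS1-free strain serves as control.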
MARV entry inh: Marburg virus entry inhibition; AID 540276; Potency, µM (highest dose often 37.8 µM), for inactives: at the top dose activity change, negative = inhibition, actives largely listed as inhibitors; Marburg virus pseudotyped entry inhibition, cell reporter; control for the full effect not named in the record; about a third of the inactives were read at about 46 µM; 1.8% of 300,000 active; active = well fitted inhibition curve with a large enough effect; inconclusive = small, poorly fitted or top-dose-only effect, or effect the other way; inactive = flat fitted curve, though single readings scatter; tested in HEK293 cells; about a fifth of its hits are not listed in these tables; also: % is scaled to controls: 0 for no effect and ±100 for the full control effect; luciferase read-out
LASV entry inh: blocks Lassa virus binding to or entry into cells; Potency, µM (top dose mostly 37.9 µM), inactives show at the top dose activity change, negative = inhibition, actives largely listed as inhibitors; 1.2% of 300,000 active; Lassa virus pseudotype entry inhibition, cell reporter; control for the full effect not named in the record; active means well fitted inhibition curve with a large enough effect; inconclusive means small, poorly fitted or top-dose-only effect, or effect the other way; inactive means flat fitted curve, though single readings scatter; tested in HEK293 cells; also: % is scaled to controls: 0 for no effect and ±100 for the full control effect; nearly all actives have a fitted effect of over 50% in size; luciferase read-out
2A StopGo: lowers the luciferase signal of an FMDV 2A StopGo reporter; 1.2% of 410,000 active; human cells with a luciferase reporter of 2A StopGo recoding; control for the full effect not named in the record; AID 1159524; Potency, µM (series often up to 57.9 µM), inactives show at the top dose signal change, negative = less light; active = well fitted falling curve with a large enough effect; inconclusive = small, poorly fitted or top-dose-only effect; inactive = no such curve, though single readings can be large or run the other way; tested in HEK293T cells; also: % is scaled to controls: 0 for no effect and ±100 for the full control effect; nearly all actives have a fitted effect of over 45% in size; luciferase light after 4 h
SARS PLpro yeast: SARS-CoV PLP inhibition in yeast; S. cerevisiae expressing SARS-CoV PLpro, growth rescue; control for the full effect not named in the record; Potency, µM (titrated, usually from 32.9 µM), inactives show at the top dose activity, positive = growth rescue; 0.19% of 330,000 active; AID 485353; active means well fitted rising curve with a large enough effect; inconclusive means small, poorly fitted or top-dose-only effect; inactive means no such curve, though single readings can be large or run the other way; also: 0% is about no effect; nearly all actives have a fitted effect of over 55% in size; growth read by luminescence after 48 h
Cruzain inh noDet: cruzain (T. cruzi) inhibition without detergent. Potency, µM, without a hit: max response, negative = inhibition, actives largely listed as inhibitors. 2.3% of 200,000 active. AID 1476. purified cruzain, Z-FR-AMC fluorescence, no detergent;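 also: plate controls were enzyme without inhibitor for no effect and buffer without enzyme for full effect; nearly all actives have a fitted effect of over 40% in size; top concentration of the series not given in the record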
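Detergent-free condition (0.00005% Triton X-100) in acetate buffer pH 5.5 with DTT. 1.5 nM enzyme and compound were pre-mixed 15 min, then 2 uM Z-FR-AMC substrate added; reaction progress from fluorescence change between first and third reads (60 s).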
* hit, by the source's call; ? = inconclusive; / = not tested or not shown; & = joins results of further samples; [ ] = remark or other dose. Unless noted, calls follow the shape of the dose curve; as a rule, active = well fitted curve in the direction sought with a large enough effect; inconclusive = small, poorly fitted or top-dose-only effect, or another doubt; inactive = no such curve, though single readings can be large; an effect the other way counts as inactive or inconclusive. Potency is read from the fitted curve at half-maximal effect.

Each structure is followed by: Cruzain Triton | RE007 growth inh | NS1 function inh | MARV entry inh | LASV entry inh | 2A StopGo | SARS PLpro yeast | Cruzain inh noDet
O=C(NCc1ccccc1)c1ccc2c(=O)n(CCCN3CCCC3=O)c(=S)[nH]c2c1
    -0.8% | 3% | -1% | 9% | -3% | -20% | ? | -5%
Cc1ccc(S(=O)(=O)Nc2nc3ccc(S(C)(=O)=O)cc3s2)cc1
    -1.9% | -16% | -2% | 6% | 3% | / | -3% | -5%
O=C(Nc1ccc(F)c(Cl)c1)C1CCN(C(=O)c2ccc(F)cc2)CC1
    -4.4% | / | / | -2%[46.1 µM] | -14%[46.1 µM] | -26% | / | -3%
COc1cc(/C=C/C(=O)O)cc(S(=O)(=O)N2CCc3ccccc32)c1OC
    / | -16% | -1% | 8%[46.1 µM] | -3%[46.1 µM] | -5% | 0% | /
CCOC(=O)c1c(NC(=O)CSc2nnnn2-c2ccc3c(c2)OCO3)sc(C)c1C
    0.8% | 0% | 16% | -18% | ? | -3% | 2% | -29%
Cc1cc(C)n(CCC(=O)N/N=C/c2ccc(O)cc2O)n1
    -2.6% | -5% | 6% | 13µM* | ? | 0% | 7% | -3%
O=C(C[C@H]1C[C@H](C(=O)N2CCCCC2)[C@@]2(CCc3ccccc3)c3[nH]c4cc(-c5ccco5)ccc4c3CCN2C1=O)NCCC1=CCCCC1
    / | 6% | / | 2% | / | 6% | 6% | /
COc1ccc(N2CCN(Cc3nc4c(c(=O)n(C)c(=O)n4C)n3C(C)C(C)=O)CC2)cc1 (stereo not given)
    5.0% | 7% | ? | -26% | -9% | -17% | -1% | ?
CCN(CC)S(=O)(=O)c1ccc(/C=C/C(=O)OCC(=O)NCc2ccco2)cc1
    / | 3% | / | 4% | -6% | -7% | 2% | /
Cc1ccccc1OCC(=O)Nc1sc2c(c1C(=O)OC(C)C)CCCC2
    -0.7% | / | / | / | -19%[46.1 µM] | -18% | / | 1%
COc1ccc(CN(C)c2ccc(-c3nc(C)no3)cc2[N+](=O)[O-])cc1
    -9.6% | / | / | -10%[46.1 µM] | 8%[46.1 µM] | ? | / | -6%
Cc1nc2cc(C(=O)N3c4ccccc4CC3C)ccc2s1 (stereo not given)
    / | -2% | 2% | / | ? | -11% | -1% | /
Cc1nc(NCCCN2CCOCC2)c2oc3ccccc3c2n1
    1.6% | -12% | -8% | 28% | -1% | -20% | 8% | -6%
Nc1c(-c2ccccc2)cnn1-c1cccc(C(F)(F)F)c1
    -3.8% | -9% | 5% | 13% | 18% | 23% | -13% | 6%
C/C=C/CSc1nc2c(c(=O)[nH]c(=O)n2C)n1Cc1ccc(C)cc1
    2.0% | 9% | 7% | / | / | ? | -3% | ?
Cc1nc2ccccc2c2c1C(=O)N(c1ccc(C(=O)O)cc1)C2=O
    / | -9% | / | 6%[46.1 µM] | 4%[46.1 µM] | 3% | 3% | /
COCCn1c(C(C)C)nc2ccccc21
    / | 17% | -2% | / | / | -14% | -2% | /
O=C(Cc1c(F)cccc1Cl)Nc1ncc([N+](=O)[O-])s1
    / | 7% | -44% | / | / | 8% | 1% | /
O=[N+]([O-])c1cccc(S(=O)(=O)Nc2ccc(S(=O)(=O)N3CCCC3)cc2)c1
    / | 2% | / | ? | -9% | 9% | / | /
COc1ccc(N2CSC3=C(C#N)C(c4cc(OC)ccc4OC)CC(=O)N3C2)c(OC)c1 (stereo not given)
    -9.8% | -11% | -36% | 4% | / | -21% | -12% | 3%
COc1cc(NC(=O)CN(C)C2CCCCC2)c(C)cc1[N+](=O)[O-]
    2.2% | -1% | 4% | ? | 9% | -17% | -2% | -8%
Cc1ccc(-c2csc3nc4cc(C(N)=O)ccc4c(=O)n23)cc1
    / | 5% | 0% | / | / | 1% | -1% | /
CCCNC(=O)c1ccccc1SCc1c(C)noc1C
    / | -17% | 4% | -6%[46.1 µM] | 2%[46.1 µM] | -10% | -1% | /
CCOCCCNC(=O)c1c[nH]c2ccc(S(=O)(=O)Nc3cccc(OC)c3)cc2c1=O
    2.9% | 22% | 0% | 14% | -15% | 0% | 10% | 10%
O=S(=O)(NC(=NC1CCCCC1)c1ccccc1)c1ccc(F)cc1
    / | -9% | 4% | -3% | 0% | 13% | 1% | /
O=C(CN1C(=O)c2ccccc2S1(=O)=O)NCc1ccc(F)cc1
    / | -1% | -3% | 28% | ? | 24% | 0% | /
N#CCc1ccc(C(=O)c2ccccc2F)s1
    -3.0% | -12% | 25% | 4%[46.1 µM] | 10% | -2% | 0% | -1%
C[n+]1c2n(c3ccccc31)N=C(c1cc(C(C)(C)C)c(O)c(C(C)(C)C)c1)CS2
    / | -3% | -3% | 11µM* | ? | 14µM* | -1% | /
CCOC(=O)N1CCC(NC(=O)c2ccc(CS(=O)c3cccc(C)c3)o2)CC1 (stereo not given)
    / | -1% | -7% | / | / | -25% | 1% | /
COc1ccc2cc(-c3[nH]ncc3CN3CCCN(c4ccccc4)CC3)ccc2c1
    / | -4% | 7% | / | / | 11% | -1% | /

Among those listed so far, 4 have a furan ring, fused or not.
Each structure is followed by: Cruzain Triton | RE007 growth inh | NS1 function inh | MARV entry inh | LASV entry inh | 2A StopGo | SARS PLpro yeast | Cruzain inh noDet
O=C(C[C@H]1C[C@H](C(=O)N2CCCCC2)[C@@]2(CCc3ccccc3)c3[nH]c4cc(-c5ccco5)ccc4c3CCN2C1=O)NCCC1=CCCCC1
    / | 6% | / | 2% | / | 6% | 6% | /
CCN(CC)S(=O)(=O)c1ccc(/C=C/C(=O)OCC(=O)NCc2ccco2)cc1
    / | 3% | / | 4% | -6% | -7% | 2% | /
Cc1nc(NCCCN2CCOCC2)c2oc3ccccc3c2n1
    1.6% | -12% | -8% | 28% | -1% | -20% | 8% | -6%
CCOC(=O)N1CCC(NC(=O)c2ccc(CS(=O)c3cccc(C)c3)o2)CC1 (stereo not given)
    / | -1% | -7% | / | / | -25% | 1% | /

(list continues)
Each structure is followed by: Cruzain Triton | RE007 growth inh | NS1 function inh | MARV entry inh | LASV entry inh | 2A StopGo | SARS PLpro yeast | Cruzain inh noDet
CC(C)CNC(=O)c1ccccc1NC(=O)CN(c1ccc2c(c1)OCCO2)S(C)(=O)=O
    -0.7% | -6% | -10% | 1%&-9% | ? | / | 6% | -1%
COc1ccc(CNC(=O)c2cc3c(=O)n(Cc4ccc(OC)cc4)ccc3nc2C)cc1
    7.4% | / | / | / | -13%[46.1 µM] | 0% | / | ?
Cc1ccc(-n2ncc3c(=O)n(CC(=O)NC4CCCC4)cnc32)cc1C
    0.4% | 12% | 8% | 0% | -16% | -4% | -2% | -2%
Cc1ccc(C)c(OCC(=O)N2CCOCC2)c1
    2.0% | 4% | -1% | 10% | 0% | 3% | 4% | -4%
CN1c2ccccc2Oc2c(c(=O)n(C)c(=O)n2C)C1c1cccc([N+](=O)[O-])c1 (stereo not given)
    -0.3% | 10% | -13% | ? | -27% | -29% | 2% | 2%
CC1CCN(S(=O)(=O)c2ccc3c(ccc(=O)n3CC(=O)Nc3cccc(F)c3)c2)CC1
    -2.0% | / | / | / | ? | ? | / | -2%
CCn1nc(C)c(CNC(=O)C2CCC(=O)N(Cc3cccc(F)c3)C2)c1C (stereo not given)
    / | -4% | 0% | ? | ? | -15% | -1% | /
Nc1nc(SCc2ccccc2)c2[nH]cnc2n1
    / | 5% | 1% | / | / | -3% | 0% | /
COc1ccccc1NC(=O)CCc1nc(-c2cccs2)no1
    1.3% | 10% | -18% | 10% | ? | 3% | 9% | -4%
CC(=O)c1c(C)[nH]c(C(=O)OCC(=O)Nc2sc3c(c2C#N)CCCC3)c1C
    -9.0% | 0% | 13% | ? | ? | 18µM* | 8% | 12%
CN(C)c1ccc(CN(C(=O)COc2ccc(Br)cc2)C2CCS(=O)(=O)C2)cc1 (stereo not given)
    -0.6% | -1% | 5% | 0% | 11% | -12% | -2% | ?
N/C(=N\OC(=O)c1ccc2c(c1)OCO2)c1cccnc1
    / | ? | 3% | ? | ? | ? | -2% | /
CN1C(=O)N(C)c2ccc(Br)c3cccc1c23
    / | 10% | 2% | / | / | -12% | 0% | /
Cc1cc(NC(=O)C2CC(c3ccc(Cl)cc3)=NO2)no1 (stereo not given)
    -0.5% | 18% | 3% | -5%[46.1 µM] | -18% | 8% | 3% | -11%
Cc1[nH]c2ccccc2c1/C=N/Nc1cccc(C(=O)O)c1
    / | 19% | 6% | / | / | -20% | -2% | /
CS(=O)(=O)NCc1nnc2n1-c1ccc(Cl)cc1C(c1ccccc1)=NC2
    1.0% | 11% | 15% | 5% | ? | -10% | ? | 0%
O=C(Cc1cccc2ccccc12)Nc1nc2ccccc2[nH]1
    2.8% | 5% | -9% | ? | 9% | -24% | -11% | -19%
CC(C)COc1ccc(-c2nnn(CC(=O)N3CCCC3)n2)cc1
    -3.2% | 2% | -38% | 3% | -6% | 19% | -16% | 7%
O=C1CC(N2CCCCCC2)C(=O)N1c1ccc(F)cc1 (stereo not given)
    / | 10µM* | -3% | / | / | -5% | -5% | /
Cc1cccc(NC(=O)c2ccc(NC(=O)c3ccccc3Br)cc2)c1
    / | -2% | -2% | / | / | -23% | 2% | /
COCCCNC(=O)CSc1nc(-c2ccccc2)[nH]c1-c1ccc(C)cc1
    -6.5% | / | / | ? | -12%[46.1 µM] | -12% | / | -9%
CCOc1cccc(C(=O)Nc2cccc(-c3nnc(-c4ccccc4)o3)c2)c1
    10% | -1% | 1% | ? | ? | / | 10% | 7%
CCCCN1CCc2nc(N3CCN(C)CC3)ncc2C1
    -0.8% | / | / | / | 13%[46.1 µM] | 0% | / | -1%
CN(C)c1ccc(C(=O)OCC(=O)NC2CCCCCC2)cc1
    / | 2% | / | ? | ? | -29% | -4% | /

As entered above:
`CCOc1cccc(C(=O)Nc2cccc(-c3nnc(-c4ccccc4)o3)c2)c1` in RE007 growth inh is listed with -1%
`O=C(C[C@H]1C[C@H](C(=O)N2CCCCC2)[C@@]2(CCc3ccccc3)c3[nH]c4cc(-c5ccco5)ccc4c3CCN2C1=O)NCCC1=CCCCC1` in 2A StopGo is listed with 6%

Compounds were not picked by outcome. Share with any hit: about 4.7%.
